Bioassay records deposited in PubChem BioAssay by several laboratories.
INS promoter inh = TRM-6 insulin promoter activity inhibition | AID 1273 | 130,000 tested, 0.9% active | TRM-6 cells (human fetal islet line), insulin promoter-eGFP reporter, imaging; reporter expression induced with tamoxifen | inhibition, % at 2 µM;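 active = inhibition above the mean plus 3 SD, with well images judged a real hit on visual review, cut at about 60% in these data, passing the limit was not always enough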
PKD1 kinase inh = PKD1 (human) kinase inhibition. Q15139. PKD1 kinase fluorescence polarization assay. inhibition, %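 (about 10 µM by stock and volumes)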. 200,000 tested, 0.056% active. AID 797;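 active = inhibition of 50% or more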;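 note: controls were vehicle for no effect and a reference inhibitor for full effect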
GALR2 ag = activates the human galanin receptor 2; O43603; GALR2-expressing cells, agonist activation read-out; activation, %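 (tested at 5 µM)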; 140,000 tested, 0.48% active;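 active = above mean plus 3 SD of all compounds, about 5% in these data, not always enough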;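 note: 0% = vehicle buffer wells and 100% = reference agonist at full effect; tested in CHO reporter cells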
Target sequence (O43603 whole entry, looked up): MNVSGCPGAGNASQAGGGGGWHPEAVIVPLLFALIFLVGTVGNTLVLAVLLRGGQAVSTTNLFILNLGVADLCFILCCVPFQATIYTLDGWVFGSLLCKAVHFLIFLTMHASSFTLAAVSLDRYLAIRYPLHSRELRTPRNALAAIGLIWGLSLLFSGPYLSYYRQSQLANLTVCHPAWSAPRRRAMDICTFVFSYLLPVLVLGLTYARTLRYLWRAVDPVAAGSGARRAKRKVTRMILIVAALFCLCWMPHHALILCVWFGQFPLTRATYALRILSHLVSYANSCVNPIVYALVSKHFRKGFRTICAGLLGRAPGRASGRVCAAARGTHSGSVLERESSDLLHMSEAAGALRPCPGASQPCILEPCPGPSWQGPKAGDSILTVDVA
HSV augment = increases HSV replication in cells. maximum fold increase. 220,000 tested, 0.005% active. HSV replication augmentation in cells, fold increase;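 active = peak rise of 1.5-fold or more in the series; tested in PC3 cells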;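 note: first round at 10 µM; read as green reporter fluorescence; hits show the peak of a series up to 25 µM; 1 = signal of infected wells without compound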
RGS16-Gao = RGS16-Galphao interaction regulator (human); O15492+P09471; bead-based flow cytometry RGS16-Galphao binding, fluorescence; actives lie on both sides; binding response (% of control), % at 10 µM; 220,000 tested, 0.38% active;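 active = below 25% or above 175%, edge rows of some plates excepted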;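 note: Galphao activated by GDP with aluminum fluoride before binding; 100% = wells without compound and 0% = beads without RGS; some results beyond the cut were filed as inactive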
Target sequence (O15492 whole entry, looked up): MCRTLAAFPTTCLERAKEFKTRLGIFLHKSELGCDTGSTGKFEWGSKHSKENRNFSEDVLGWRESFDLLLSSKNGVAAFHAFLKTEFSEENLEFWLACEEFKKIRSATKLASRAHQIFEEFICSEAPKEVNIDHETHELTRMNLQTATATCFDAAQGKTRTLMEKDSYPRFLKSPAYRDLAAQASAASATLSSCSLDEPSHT
Target sequence (P09471 whole entry, looked up): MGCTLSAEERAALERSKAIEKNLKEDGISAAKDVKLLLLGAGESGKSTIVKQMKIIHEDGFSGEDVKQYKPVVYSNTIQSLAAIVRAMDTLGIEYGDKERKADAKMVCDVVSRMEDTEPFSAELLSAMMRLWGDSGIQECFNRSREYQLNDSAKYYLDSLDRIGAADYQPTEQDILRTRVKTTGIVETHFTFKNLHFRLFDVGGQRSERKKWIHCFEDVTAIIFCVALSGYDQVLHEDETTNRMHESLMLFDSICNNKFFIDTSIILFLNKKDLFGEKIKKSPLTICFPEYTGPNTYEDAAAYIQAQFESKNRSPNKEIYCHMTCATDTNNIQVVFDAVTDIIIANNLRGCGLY
INS promoter inh cell count = recorded beside INS promoter inh, whose call it bears; normalized cell count, %; measured here: cell count, toxicity; reference of the scale not given here;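 cells exposed to compound for 48 h; stained nuclei by imaging scaled within each plate; lower means fewer cells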
HSV augment primary fold = further read-out of HSV augment, marked with its call; fold increase; compound at 10 µM; measured here: primary screen fold increase 10 uM; tested in PC3 cells;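 GFP signal in the first replicate; 1 = infected wells without compound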
Numbers without * were called inactive; i = inactive; · = no result given.

SMILES	INS promoter inh	INS promoter inh cell count	PKD1 kinase inh	GALR2 ag	HSV augment	HSV augment primary fold	RGS16-Gao
CCOc1cc(N2CCOCC2)c(OCC)cc1NC(=O)c1ccc(OC(C)C)cc1	·	·	1	·	i	0.87	100
N#C/C(=C\c1ccc(Cl)s1)C(=O)N1CCN(c2ccccc2)CC1	14	101	2	-1.3	i	1	96
O=C1c2ccccc2C(=O)N1Cc1nc(-c2cccnc2)no1	29	133	-4	-2.3	·	·	·
Fc1ccc(NC(=S)Nc2cccnc2)cc1	35	147	-2	·	i	0.93	104
O=C(c1ccccc1)[C@H]1CC=CC[C@H]1C(=O)O	11	56	-10	-0.1	i	1.1	101
N/C(=N\OC(=O)Cc1ccccc1)c1ccccn1	-49	174	-4	-2.0	i	1	105
Cn1c(=O)c2c(SCC(=O)N3CCCc4ccccc43)nc(CC(C)(C)C)nc2n(C)c1=O	·	·	2	-0.9	·	·	95
O=C(Nc1cccc(C(F)(F)F)c1)NC1CCN(S(=O)(=O)c2ccc(F)cc2)CC1	-60	104	-4	-0.2	i	1	111
O=C1C2C3C=CC(C4CC34)C2C(=O)N1/N=C/c1ccc(-c2ccccc2[N+](=O)[O-])o1 (stereo not given)	-34	143	2	-1.0	i	0.92	98
COc1ccc(Cc2nnc(-c3ccc(F)cc3)o2)cc1OC	·	·	13	-1.6	i	0.87	103
COc1ccc(NC(=O)COC(=O)CNS(=O)(=O)c2ccccc2)cc1OC	39	110	5	·	i	1.1	102
CCN(CC)S(=O)(=O)c1ccc(N2CCCC2)c(NS(=O)(=O)c2ccccc2)c1	19	73	-13	-0.7	i	0.93	123
CC1(C)Cc2nc3[nH]c(=S)n(-c4ccccc4)c(=O)c3cc2CO1	33	94	-2	-0.5	i	0.89	·
COc1cccc(-c2nnc(SCC(=O)Nc3cc(C)on3)n2C)c1	-11	135	7	-0.5	i	0.79	99
COCC(C)n1c(SCc2nc3ccccc3c(=O)[nH]2)nc2ccccc2c1=O (stereo not given)	-8	88	3	·	i	0.81	101
CCSc1nc2ccccc2n1Cc1ccccc1F	62	114	1	-1.5	i	1.1	98
CCN(Cc1cc2ccccc2[nH]c1=O)C(=O)c1cccc([N+](=O)[O-])c1	·	·	·	·	i	1	93
CCCC[n+]1ccn(-c2nc3ccccc3nc2[N-]S(=O)(=O)c2ccc(Br)cc2)c1	·	·	·	·	i	0.83	99
O=C(/C=C/c1cn(-c2ccccc2)nc1-c1cccnc1)NCCN1CCOCC1	-18	68	-7	·	i	0.85	113
O=C(O)c1ccc(N2C(=O)c3[nH]nc(-c4ccccc4)c3C2c2ccccc2)cc1 (stereo not given)	·	·	-1	·	i	0.93	101
Cn1c(NCc2ccccc2)nc2c1c(=O)n(Cc1ccccc1)c(=O)n2C	61	152	1	-2.1	i	0.85	98
Fc1cccc(Cn2cc(C(=S)N3CCCCC3)c3ccccc32)c1	-17	88	-8	-0.9	i	0.82	251
COc1ccc(NS(=O)(=O)c2ccc(OCC(=O)N3CCOCC3)cc2)cc1	0	160	-8	-2.7	i	1	12*
Cc1nc(S(=O)(=O)c2ccc(Cl)cc2)c(NCc2ccccc2)o1	·	·	-7	-0.5	i	0.94	113
CCCn1c(SCC(=O)c2c[nH]c3ccccc23)nnc1-c1ccncc1	9	149	5	-1.3	i	0.95	95

A different layout for part of the listing above:
> CCSc1nc2ccccc2n1Cc1ccccc1F
  INS promoter inh: 62; INS promoter inh cell count: 114; PKD1 kinase inh: 1; GALR2 ag: -1.5; HSV augment: i; HSV augment primary fold: 1.1; RGS16-Gao: 98
> CCN(Cc1cc2ccccc2[nH]c1=O)C(=O)c1cccc([N+](=O)[O-])c1
  INS promoter inh: ·; INS promoter inh cell count: ·; PKD1 kinase inh: ·; GALR2 ag: ·; HSV augment: i; HSV augment primary fold: 1; RGS16-Gao: 93

The results go on.
SMILES	INS promoter inh	INS promoter inh cell count	PKD1 kinase inh	GALR2 ag	HSV augment	HSV augment primary fold	RGS16-Gao
Oc1oc(C=Nc2ccc(F)cc2F)c2ccccc12	-75	39	-1	·	i	0.97	93
CC(C)C(=O)NS(=O)(=O)c1ccc(N)cc1	16	126	-3	-3.4	i	1.1	95
COC(=O)c1nn(-c2ccccc2)c2nnc(Cc3ccc(C)cc3)c(=O)n12	2	119	8	0.0	i	1.1	103
Cc1ccnc(NC(=O)COc2ccc3oc4c(c3c2)CCCC4)c1	-17	107	-1	-0.2	i	1.1	72
S=C(NCc1ccco1)Nc1ccccn1	18	101	1	·	i	0.99	98
CC1(C)CC(=O)C2=C(C1)Oc1ncn(Cc3ccco3)c(=N)c1C2c1ccccc1 (stereo not given)	-30	78	0	-1.3	i	0.94	104
Cc1cccc(NC(=O)CCCN2C(=O)c3ccccc3C2=O)n1	11	109	-3	-1.9	i	0.91	95
COc1ccc(NC(=O)CCN2C(=O)C3C4C=CC(C4)C3C2=O)cc1 (stereo not given)	40	78	7	·	i	1.1	108
Cc1ccc(NC(=O)Cc2nnc(N)s2)cc1	·	·	·	·	i	1	105
O=C(Cc1ccccc1)NC1CCS(=O)(=O)C1 (stereo not given)	54	92	-13	-0.4	i	0.99	100
COc1cccc2c(O)cc(=O)n(C)c12	-38	186	-8	-1.3	i	1	102
CCc1ccc(-c2c(C)sc(NC(=O)C3CCC3)c2C#N)cc1	14	115	-15	0.0	i	1	103
COc1ccccc1-n1c(SCC(=O)Nc2cccc(S(N)(=O)=O)c2)nc2ccccc2c1=O	·	·	0	·	i	1.1	99
CCC(CO)N=C1CC(C)(C)CC(=O)/C1=C(/O)CCCN1C(=O)c2ccccc2C1=O (stereo not given)	33	43	3	·	i	0.97	107
Cn1c(=O)c2c(nc(NCc3ccc4c(c3)OCO4)n2Cc2ccc(F)cc2)n(C)c1=O	22	101	-7	-1.8	i	0.81	103
Brc1ccc2c(c1)OCCOCCOCCOCCOCCOCCO2	·	·	-14	-0.3	i	0.99	142
CCOCCCNC(=O)N1CCOCC1	17	34	-8	-0.3	i	0.98	100
COc1ccccc1S(=O)(=O)Cc1ccc(C(=O)NCCN(C)C)o1	·	·	2	-2.1	i	0.89	·
Oc1[nH]c2ccccc2c1C=Nc1ccc2c(c1)OCO2	·	·	-3	-1.8	i	0.86	102
O=C(O)CCC(=O)NNc1nc2ccccc2nc1-c1ccccc1	·	·	-3	·	i	0.99	103
COc1cccc(C(=O)N/N=C/C(Br)=C/c2ccccc2)c1	·	·	2	-1.9	i	0.72	102
O=C(CN(C(=O)c1csnn1)c1ccc(F)cc1)NCc1ccc(F)cc1	·	·	1	·	i	1	100
Cc1cc(C(=O)COC(=O)c2ccc3c(c2)OCO3)c(C)n1Cc1cccs1	16	78	11	-2.3	i	1	101
CCN1CCN(Cc2ccc(NC(=O)c3ccc(C)c(NC(=O)c4csc(-c5ccncc5)n4)c3)cc2C(F)(F)F)CC1	·	·	·	·	i	0.73	101
Cn1cc(C(=O)c2ccc(Cl)cc2Cl)cc1C=O	·	·	-7	·	i	1	98
(next part)
SMILES	INS promoter inh	INS promoter inh cell count	PKD1 kinase inh	GALR2 ag	HSV augment	HSV augment primary fold	RGS16-Gao
CC1(C)CC(=O)C(C(C#Cc2ccccc2)C2=C(O)CC(C)(C)CC2=O)=C(O)C1	3	109	-4	-0.6	i	0.92	94
CC(CCc1ccccc1)NC(=O)c1ccncc1 (stereo not given)	-156	106	-8	-1.6	i	0.85	103
CN(CCC1CCCCO1)C(=O)CCc1nnc(C2CCCCC2)o1 (stereo not given)	·	·	-2	·	i	1	120
CCOc1ccccc1C(=O)n1nc(C)cc1C	-3	64	-4	-1.2	i	0.98	98
CC1=NN(C(=O)CCCc2ccccc2)C(O)(C(F)(F)F)C1 (stereo not given)	·	·	-3	·	i	1	108
CCOc1ccc(N(CC)C(=O)COc2cc(=O)n(CC)c3ccccc23)cc1	-50	102	-8	-1.4	i	0.82	113
CC(C)OCCCNC(=S)Nc1ccc(S(N)(=O)=O)cc1	23	95	-1	-1.0	i	0.88	63
Cc1ccc(C)c(Cn2nnc3c(=O)[nH]c(C4CCN(C(=O)c5cccs5)CC4)nc32)c1	38	60	-2	-0.2	i	0.81	100
Cc1nnc(N2CCN(C)CC2)c2nn(-c3ccc(Cl)cc3)c(C)c12	3	68	0	-1.5	·	·	·
Cc1cc(C)nc(SCc2ccc(F)cc2)n1	-29	136	4	·	i	1	100
Cc1[nH]c2ccccc2c1C(=O)CSc1ccccc1	22	92	-10	-0.9	i	0.99	94
O=C(CN1CCC(c2nc3ccccc3s2)CC1)NCc1cccs1	-19	67	-4	-0.2	i	0.99	99
NC(=O)c1cccc(CC(=O)c2ccccc2)c1	·	·	·	·	i	0.97	84
O=C(N/N=C/C(Br)=C\c1ccccc1)c1ccco1	·	·	·	·	i	0.81	109
COc1cc(C2C(C#N)=C(N)OC3=C2C(=O)CCC3)ccc1OC(=O)N1CCOCC1 (stereo not given)	62	121	-6	-1.9	i	0.74	100
CCC(C)NC(=O)NC1C(NC(=O)NC(C)CC)N(C)C(=O)N1C (stereo not given)	-29	118	-6	-1.8	i	1.1	102
Cc1cccn2c(=O)c3cc(C(=O)NCc4ccco4)c(=N)n(C(C)C)c3nc12	-45	87	2	3.5	i	1.1	98
O=C(Nc1nn[nH]n1)c1ccc(S(=O)(=O)N2CCCCC2)cc1	·	·	-3	·	i	0.92	94
C=CCn1c(NC(C)c2cc(Cl)ccc2O)nc2ccccc21 (stereo not given)	·	·	4	-2.1	·	·	111
Cc1ccc(CNS(=O)(=O)c2ccccc2[N+](=O)[O-])cc1	·	·	-3	·	i	0.92	127
O=C(NC(=S)NCC1CCCO1)c1ccccc1 (stereo not given)	-22	95	-3	-0.8	i	0.91	101
Cc1cc2ccccc2c(=O)n1CC(=O)N1CCN(c2cccc(Cl)c2)CC1	-23	156	-9	0.0	i	1	105
N#C/C(=C\Nc1ccccc1SC(F)(F)F)c1nc(-c2ccc(Cl)cc2)cs1	·	·	-6	0.9	i	0.9	107
CC1CC(C)CN(C(=O)c2cccc(S(=O)(=O)Nc3cc(C(F)(F)F)ccc3Cl)c2)C1 (stereo not given)	50	146	3	0.6	i	0.93	107
Cc1ccc(S(=O)(=O)N(CC(=O)N2CCCCCC2)c2ccccc2)cc1	-53	104	-1	-1.9	i	1.1	101

In the list so far, 5 contain a thiophene ring, fused or not.
SMILES	INS promoter inh	INS promoter inh cell count	PKD1 kinase inh	GALR2 ag	HSV augment	HSV augment primary fold	RGS16-Gao
N#C/C(=C\c1ccc(Cl)s1)C(=O)N1CCN(c2ccccc2)CC1	14	101	2	-1.3	i	1	96
CCc1ccc(-c2c(C)sc(NC(=O)C3CCC3)c2C#N)cc1	14	115	-15	0.0	i	1	103
Cc1cc(C(=O)COC(=O)c2ccc3c(c2)OCO3)c(C)n1Cc1cccs1	16	78	11	-2.3	i	1	101
Cc1ccc(C)c(Cn2nnc3c(=O)[nH]c(C4CCN(C(=O)c5cccs5)CC4)nc32)c1	38	60	-2	-0.2	i	0.81	100
O=C(CN1CCC(c2nc3ccccc3s2)CC1)NCc1cccs1	-19	67	-4	-0.2	i	0.99	99

The results go on:
SMILES	INS promoter inh	INS promoter inh cell count	PKD1 kinase inh	GALR2 ag	HSV augment	HSV augment primary fold	RGS16-Gao
CC(C)(Oc1ccc(Cl)cc1)C(=O)NCCN1C(=O)S/C(=C/c2cccnc2)C1=O	-40	101	-5	-0.4	i	0.78	98
Cc1cc(C(=O)Nc2sc(C)c(C)c2C#N)no1	-57	109	-3	-2.6	i	0.95	96
CCc1cccc(OCCN2CCCC2)c1	0	100	-2	-1.0	·	·	101
COc1cccc(C(=O)N(CN2CCCC2=O)c2cccc(Cl)c2)c1OC	·	·	5	-0.7	i	0.74	102
O=C(CC1C(=O)NCCN1Cc1ccc(-c2ccccc2)cc1)NCC1CC1 (stereo not given)	9	94	-5	·	i	0.99	102
O=P(O)(COc1ccccc1)COc1ccccc1	-12	82	-8	-1.6	i	1	91
O=C(NC(Cc1c[nH]c2ccccc12)C(=O)NCCCN1CCOCC1)c1cccs1 (stereo not given)	·	·	-3	·	i	0.96	100
CCN1C(=O)C(CC(=O)Nc2ccc(OC)cc2)N(CCc2ccccc2)C1=S (stereo not given)	-75	101	-2	·	i	0.87	107
NC(=O)c1ncc(C(F)(F)F)cc1Cl	-33	100	4	·	i	0.92	97
CCN(CC)C(=O)CCCOc1ccc(Cl)cc1Cl	·	·	1	0.9	i	0.88	97
COc1ccccc1N(CC(O)COc1ccccc1C)S(=O)(=O)c1ccccc1 (stereo not given)	-94	125	-3	-1.2	i	0.95	102
COc1ccc(-n2c(C)cc(C(=O)CN3C(=O)NC4(CCCc5sccc54)C3=O)c2C)cc1 (stereo not given)	29	102	-3	-0.4	i	0.78	118
Cc1ccc(C(C[N+](=O)[O-])c2c(-c3ccccc3O)[nH][nH]c2=O)cc1 (stereo not given)	·	·	6	-1.5	i	0.74	68
COC(=O)c1cc(NC(=O)N2c3ccccc3Sc3ccccc32)cc(C(=O)OC)c1	-17	69	-7	-4.2	i	0.97	105
